Assay outcomes: PubChem BioAssay, National Center for Advancing Translational Sciences (NCATS)
Prx2 Sm inh = Schistosoma mansoni Prx2 inhibition. S. mansoni Prx2 activity coupled to TGR/GSH (TGR is thioredoxin glutathione reductase), NADPH fluorescence loss, qHTS; some inactives read as strong as hits. Potency, µM. hit rate 0.07% among 65,000. AID 448; active means full or partial inhibition curve with a strong effect at the top dose; inconclusive means weaker partial or single-point curve; inactive means no accepted curve; note: series up to 57 µM; many of its hits are not listed in these tables
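Prx2 activity was followed as the loss of NADPH fluorescence (ex 365/em 450 nm), read every 30 sec for 8 min after H2O2 start. The enzyme mix (50 nM Prx2, 25 nM TGR, GSH, NADPH; pH 7.4 phosphate buffer) was incubated with compound for 15 min at room temperature first.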
LT uptake inh = inhibitors of anthrax lethal toxin internalization | AID 912 | Potency, µM (top dose mostly 40 µM), for the others: at the top dose activity change, negative = inhibition, hits mostly inhibitors | Cells, anthrax lethal toxin internalization, FRET ratio (460/530) | hit rate 0.67% among 70,000; active = well fitted falling ratio curve with the 530 nm signal flat; inconclusive = other ratio curves, or a change in one channel alone; inactive = flat curves in the ratio and both channels; the % refers to the ratio; note: % is set by controls: 0 for no effect and ±100 for the full control effect; nearly all actives have a fitted effect of over 50% in size; tested in ME-180 cells; beta-lactamase reporter
An asterisk follows results filed as active; ? = inconclusive; . = no result given; & = joins results of further samples; [ ] = dose if it differs, or a comment. Potency is the fitted concentration of half-maximal effect. These rows are one share of the data, so the mix of outcomes need not match the whole.

Below each compound – Prx2 Sm inh, LT uptake inh
OC/C(Br)=C(\Br)CO
 : ., -17.9%
C[C@H]1CC[C@H]2C(=O)N[C@H](Cc3ccccc3)C(=O)N2[C@@H]1c1ccccc1
 : ., 4.4%[8 µM]
O=C(CCS(=O)(=O)c1ccc(Br)cc1)N1CCC2(CC1)OCCO2
 : >57, -3.6%
O=C1c2ccccc2C(=O)N1Cc1ccc2c(c1)OCO2
 : >57, -1.9%
CC1(C)Cc2c(c(-c3ccccc3)[nH]c(=O)c2C#N)CO1
 : >57, -11.2%
CCNc1c(N)c(=O)oc2ccccc12
 : >57, 12.5%
O=C(Cc1ccccc1)OCc1ccccc1
 : ., 3.8%
COc1ccc2[nH]cc(CCNC(C)=O)c2c1
 : >57&>57&>25.6, 1.1%
CO[C@H]1C=C2CCN(C)[C@@H]2[C@@H]2c3cc4c(cc3C(=O)O[C@H]21)OCO4
 : >57, 4.6%[3.58 µM]
N#CC1=C(N)C(C#N)(C#N)C(c2ccc[nH]2)C2CCCC=C12 (centres undefined)
 : >57, 4.9%
CN(Cc1ccco1)c1nc(-c2cccnc2)nc2ccccc12
 : >57, -13.5%
Cc1ccc(C(=O)Nc2ncc(Cc3ccc(F)cc3)s2)o1
 : >57, -14.3%
Cc1cc(OCC(=O)Nc2cc(C)nn2-c2ccccn2)c2c3c(c(=O)oc2c1)CCC3
 : >57, 2.6%
CC(C)(C)Nc1c(N)c(=O)oc2ccccc12
 : ., -32.8%
Cc1n[nH]c(C)c1S(=O)(=O)N1CCN(c2ccccn2)CC1
 : >57, 7.6%
Cc1c(Cl)cccc1NC(=O)CCN1CCCC(C)C1 (centres undefined)
 : >57, 0.3%
O=c1[nH]c2ccc(S(=O)(=O)N3CCN(c4ccccc4F)CC3)cc2s1
 : >57, -22.2%
COc1cc2cc(C(c3nnnn3C(C)(C)C)N3CCc4ccccc4C3)c(=O)[nH]c2cc1OC (centres undefined)
 : >57, -8.1%
O=C(CSc1ccc2nnc(-c3ccccn3)n2n1)N1CCN(c2ccccc2)CC1
 : >57, 2.6%
CCOc1ccc(N2Cc3ncccc3C2=O)cc1
 : >57, ?
Cn1cccc1C(=O)NC(=O)COC(=O)Cc1coc2ccc3ccccc3c12
 : >57, ?
CCOc1cccc(N2C(=O)CC(NCc3ccc(S(N)(=O)=O)cc3)C2=O)c1 (centres undefined)
 : ., 6.6%
COC(=O)c1c(NC(=O)c2nc3ccccc3s2)sc2c1CCN(C(C)=O)C2
 : >57, ?
NC(=O)c1ccccc1N/C=C/C(=O)c1ccco1
 : >57, 6.5%
Cc1ccc(N(O)C(=O)OCCNC(=O)Nc2ccccc2)cc1
 : >57, .
O=C(c1ccco1)N1CCN(c2ccc(Cl)cc2)CC1
 : >57, 11.4%
CCCCCCc1nnc(NC(=O)OCC)s1
 : ., -15.1%
CCn1c(SCC(=O)Nc2nc(C)cs2)nnc1-c1ccco1
 : >57, 11.4%
O=C(c1ccccc1)c1ccncc1
 : >57, -10.1%
COc1ccc(NCCNc2ccc(OC)cc2)cc1
 : ., -6.7%
Cc1nc2sc(C(c3cccs3)N3CCN(Cc4ccccc4)CC3)c(O)n2n1 (centres undefined)
 : >57, 3.7%
COCC(=O)N1CCC2(CCN(Cc3cc(C(F)(F)F)cc(C(F)(F)F)c3)CC2)CC1
 : >57, 5.7%
N/C(=N\O)C1COc2ccccc2O1 (centres undefined)
 : >57, 0.9%
COc1ccc(C(=O)OCc2cc3cccc(C)c3[nH]c2=O)cc1
 : >57, -23.5%
COc1cc(S(=O)(=O)N2CCOCC2)ccc1NC(=O)COC(=O)C12CC3CC(CC(C3)C1)C2
 : >57, -4.9%
Cc1cnc(CNc2ncnc3ccc(-c4ccc5c(c4)OCO5)cc23)cn1
 : >57, -6.6%
COCC(=O)N1CCC2(CC1)CN(C(=O)Nc1cccc(F)c1)C2
 : >57, -15.8%
CCCCCn1c(CNC(=O)CC)nc2ccccc21
 : >57, -10.6%
Clc1cccc(NCc2nnc(SCc3ccccc3)o2)c1
 : >57, -12.2%
CCCCOC(=O)c1ccc(OC(=O)c2cccnc2)cc1
 : >57, -4.1%
COc1cc2c(cc1OC)CN(C(=O)COc1ccc(C)c(C)c1)CC2
 : >57, .
COc1cccc2[nH]c3c(N4CCN(Cc5ccc6c(c5)OCO6)CC4)ncnc3c12
 : >57, ?
O=C(NCc1nnc(SCC(=O)N2CCCC2)o1)c1ccccc1F
 : >57, 10.7%
Nc1ccc2oc(-c3cccc4ccccc34)nc2c1
 : >57, -11.6%
Cn1c(=O)c2c(-c3ccc(C(C)(C)C)cc3)n(N3CCOCC3)cc2n(C)c1=O
 : >57, 7.5%
CCCc1cc(C(=O)NCc2ccc(OC)cc2)no1
 : >57, 0.0%
CCc1ccccc1N1CC(C(=O)O)CC1=O (centres undefined)
 : >57, 29.5%
O=C(NCCc1ccccc1)C1CCCN(S(=O)(=O)c2cccs2)C1 (centres undefined)
 : >57, -4.6%
O=C(Nc1ccc(N2C(=O)C3C4C=CC(C4)C3C2=O)cc1)Nc1nncs1 (centres undefined)
 : >57, -20.0%
CCCCNC(=O)CN(C1CCCCC1)S(C)(=O)=O
 : >57, ?
O=C(COc1ccccc1Cl)Nn1cnnc1
 : ., 10.7%
Cc1cc(NC(=O)c2cc(C3CC3)on2)n(-c2ccccc2)n1
 : >57, -13.7%
CN(C(=O)c1cccs1)c1ccccc1C(=O)O
 : >57, -3.5%
O=C(CSc1ccc2nnc(-c3cccnc3)n2n1)N1CCOCC1
 : ., 4.6%
CC1(C(=O)NCCN2CCOCC2)C=CC2(CCCCC2)N1C(=O)c1ccccc1 (centres undefined)
 : ., 10.5%
C[C@@H]1/C=C\CC(=O)OC[C@H](C)C(=O)N2CCC[C@@H]2C(=O)OC1
 : ., -4.0%[8 µM]
CCCN(CCC(=O)Nc1ccccc1F)CC1CC1
 : ., ?
CCN1CCCC1CN(Cc1cc2cc(C)cc(C)c2[nH]c1=O)C(=O)Nc1ccccc1OC (centres undefined)
 : >57, -12.5%
CC1=C/C(=C(/c2ccc(O)c(C)c2)c2ccccc2C(=O)O)C=CC1=O
 : >57, -15.4%[8 µM]
O=c1cc(-c2ccc(Cl)c(Cl)c2)[nH][nH]1
 : >57, -12.2%

More compounds follow.
Below each compound – Prx2 Sm inh, LT uptake inh
Cc1cc(C)c2c(n1)nn1c(N3CCN(c4cccc(Cl)c4)CC3)cc(C)nc21
 : >57, -13.0%
CC1=C(C(=O)Nc2ccccn2)C(c2cccnc2)n2nnnc2N1 (centres undefined)
 : >57, 17.0%
O=C(NCc1ccco1)c1cccc2c1C(=O)N(C1CCCCC1)C2
 : >57, 3.5%
COc1ccc(CN2C(=O)c3cccnc3C2Nc2cc(Cl)c(OC)cc2OC)cc1 (centres undefined)
 : >57, 10.1%
CC(=O)Nc1cc2c(cc1C(=O)c1ccc(C)cc1)OCCO2
 : >57, 16.7%
O=C(O)COc1cccc2nsnc12
 : >57, -7.8%
CC1(C)NC(=O)N(CCCCOc2ccc3c(c2)CCC3)C1=O
 : >57, -14.0%
Cc1occc1-c1nnc(SCC(=O)NCc2ccco2)n1CC(C)C
 : >57, -20.5%
CCCNC(=O)OC[C@@H]1O[C@H](CCO/N=C(\C)CCN2CCc3nc(CC)c(CC)cc3C2)C=C[C@@H]1Oc1ccc(OC)cc1
 : ., -0.4%[1.6 µM]
N#CCCNCC1(c2ccccc2)CCCC1
 : >57, -21.8%
Cc1ccc(C2/C(=C(\O)c3c(C)nc4ccccn34)C(=O)C(=O)N2CCCN(C)C)o1 (centres undefined)
 : >57, ?
COc1ccc(-n2nnnc2SCC(=O)N2C(C)CCCC2C)c(OC)c1 (centres undefined)
 : >57, 0.7%
O=C(NC1CCCCC1)C(c1ccco1)N(Cc1ccco1)C(=O)c1ccco1 (centres undefined)
 : >57, -7.8%
C=CCn1c(SCn2nnc3ccccc3c2=O)nnc1C1CCCCC1
 : >57, -3.9%
Cc1ccc(N(C(=O)c2ccc(S(=O)(=O)N3CCOCC3)cc2)C2C=CS(=O)(=O)C2)cc1 (centres undefined)
 : >57, 6.3%
Cn1nc(-c2ccccc2F)c2cc(C(=O)N3CCN(C(=O)c4ccco4)CC3)sc21
 : >57, 10.1%
COC(=O)c1ccc2c(=O)n3c(nc2c1)SCC(c1ccccc1)=N3
 : >57, ?
CCOC(=O)N1CCC(NC(=O)C2CCC(CNS(=O)(=O)c3ccc(OC)cc3)CC2)CC1 (centres undefined)
 : >57, 1.9%
Fc1ccccc1OCCCCn1cncn1
 : >57, -2.2%
Cc1ccc(C)c(S(=O)(=O)C(C#N)c2nc3ccccc3nc2N2CCCC2)c1 (centres undefined)
 : ., 1.0%
Cc1c(C2N3CC4(C)CN2CC(C)(C3)C4=O)c2ccccc2n1C (centres undefined)
 : >57, -4.3%
Cc1c(C(=O)OCC(C)C)[nH]c2c1C(=O)CC(c1ccco1)C2 (centres undefined)
 : >57, ?
CCN(CC)CCOC(=O)C1(c2ccccc2)CCOCC1
 : >57, -4.1%
Cc1nnc(NC(=O)C(C)Sc2nncn2C)s1 (centres undefined)
 : >57, 14.3%
Cn1c(SCc2nc(-c3ccc(Cl)cc3)no2)nnc1-c1ccco1
 : >57, -9.3%
CCCN(CCO)Cc1cccc(Br)c1
 : >57, -8.1%
CCOc1ccc(OCC)c(NC(=O)Cn2cccc2)c1
 : >57, 1.7%
C/C(N)=C(/C#N)C(=O)CSc1n[nH]c(-c2ccccc2Br)n1
 : >57, -1.5%
O=C(NCc1ccc(Cl)c(Cl)c1)c1ccco1
 : ., -16.4%
N#CCSc1nnc(COc2cccc3ccccc23)n1-c1cccc(Cl)c1
 : >57, -14.8%
COc1ccc(-c2csc(N(CCCN(C)C)C(=O)c3cccs3)n2)cc1
 : >57, -10.7%
O=C(CN1C(=O)C2C3C=CC(C3)C2C1=O)NCCC1=CCCCC1 (centres undefined)
 : >57, -29.7%
Cc1nn(C(=O)c2cc3sccc3[nH]2)c(C)c1C
 : >57, ?
Nc1cc(-c2ccc(Br)cc2)nn1S(=O)(=O)c1ccccc1
 : >57, ?
C=CCn1c(SCC(=O)Nc2c(C)cccc2C)nnc1-c1ccncc1
 : >57, -0.2%
CCOCc1nc(C)c(Cl)c(NS(=O)(=O)c2ccc(N)cc2)n1
 : >57, 1.9%
CCOC(=O)c1cc2sccc2n1CC(=O)N1CCN(C(=O)c2ccco2)CC1
 : >57, 6.4%
O=C(CNS(=O)(=O)c1ccc(Br)s1)Nc1ccc2c(c1)OCCO2
 : >57, 4.7%
Cc1noc(C)c1C(=O)N1CCC2(CC1)CN(c1ncccn1)C2
 : >57, 7.3%
CC(C)Cc1nc2oc3c(NCc4cccnc4)ncnc3c2c2c1CCC2
 : >57, ?

Profiles, quoted from the list. Order of values: Prx2 Sm inh | LT uptake inh
`O=C(COc1ccccc1Cl)Nn1cnnc1` as listed: . | 10.7%
`CCNc1c(N)c(=O)oc2ccccc12` as listed: >57 | 12.5%
`Cc1cc(NC(=O)c2cc(C3CC3)on2)n(-c2ccccc2)n1` as listed: >57 | -13.7%
`Nc1ccc2oc(-c3cccc4ccccc34)nc2c1` as listed: >57 | -11.6%

Remaining list, next part:
Below each compound – Prx2 Sm inh, LT uptake inh
CC(=O)Nc1ccc(Cc2ccc3[nH]c(=O)cc(C)c3c2)cc1
 : >57, -4.1%[8 µM]
Oc1ccc(Cc2nccc3cc(O)c(O)cc23)cc1O
 : >57, -17.0%[8 µM]
COCCOCCn1c(CCCO)nc2ccccc21
 : >57, 5.7%
O=C(O)C1CC(=O)N(CCc2c[nH]c3ccccc23)C1 (centres undefined)
 : >57, -3.4%
CCC(C(=O)c1ccc(O)cc1)c1ccccc1 (centres undefined)
 : >57, ?
CCOc1ccc(-c2nnc3ccc(SCC(=O)N4CCN(c5ccccc5)CC4)nn23)cc1
 : >57, -7.8%
C=CCNC(=O)Cn1nc(-c2ccccc2)ccc1=O
 : >57, ?
CC(C)Cc1c(O)nc(SCCN2CCOCC2)[nH]c1=O
 : >57, -0.9%
Cc1nn2c(N3CCN(C(=O)c4ccco4)CC3)cc(C(C)(C)C)nc2c1-c1ccccc1
 : >57, ?
CCOc1ccccc1N(CC(=O)NC(C)(C)C)C(=O)c1ccc(CN2CCOCC2)o1
 : >57, ?
O=C(c1nc(-c2ccccc2)n(-c2ccccc2)n1)N1CCCCCC1
 : >57, ?
COc1ccc(N2CCN(C(c3cccs3)c3nnnn3C3CCCC3)CC2)cc1 (centres undefined)
 : >57, -6.1%
CCc1nc(OCCN(C)C)c2oc3ccccc3c2n1
 : >57, -17.7%
O=C(CCN1CCCCCC1)Nc1ccc(F)cc1
 : >57, -4.2%
O=C(Nc1sc2c(c1C(=O)NCc1ccco1)CCCC2)c1ccc2c(c1)OCO2
 : >57, ?
COc1ccc(N2CCN(Cc3nc4c(c(=O)n(C)c(=O)n4C)n3CCc3ccccc3)CC2)cc1
 : >57, ?
Cc1cc(N)c(NC2=CC(=O)CC(C)(C)C2)cc1C
 : >57, 16.1%
O=C(NCC1CCCO1)c1ccc(COCC(F)(F)C(F)F)cc1 (centres undefined)
 : >57, 8.6%
CC1(C)CC2(CCO1)NCCN1C(=O)CSC12 (centres undefined)
 : >57, 9.6%
Cc1ccccc1-c1cc(N(C)C)ncn1
 : >57, 2.1%
COc1cccc(-c2nccc(N(C)Cc3ccco3)n2)c1
 : >57, ?
